RanGTP-Impb inh – inhibitors of RanGTP-importin-beta interaction, primary screen, biochemical, FRET, CFP-Ran, YFP-importin-beta, homogeneous; Ran GTPase (GTP-bound) - importin-beta complex; cell-free CFP-Ran/YFP-importin-beta FRET ratio; inhibition, % (test concentration not listed); actives 1.1% (n = 300,000);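 active = most replicates above 15%; inconclusive = exactly half above 15%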;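 also: 0% = DMSO wells and 100% = Ran loaded with GDP instead of GTP; wells of about 40 µL received 100 nL stock; the first replicate is given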
UCH37 inh – inhibitors of human UCH37 deubiquitinase, primary screen, biochemical, Ub-AMC cleavage, fluorescence; actives 0.33% (n = 330,000); Ubiquitin carboxyl-terminal hydrolase isozyme L5 (Homo sapiens), Q9Y5K5; purified proteasome/UCH37; inhibition, % (concentration not given with the values);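 active = mean of two replicates above 20%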;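 also: 0% = compound-free wells with enzyme and 100% = wells lacking proteasome; stock transfer was 100 nL into about 20 µL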
Target sequence (Q9Y5K5 whole entry, looked up): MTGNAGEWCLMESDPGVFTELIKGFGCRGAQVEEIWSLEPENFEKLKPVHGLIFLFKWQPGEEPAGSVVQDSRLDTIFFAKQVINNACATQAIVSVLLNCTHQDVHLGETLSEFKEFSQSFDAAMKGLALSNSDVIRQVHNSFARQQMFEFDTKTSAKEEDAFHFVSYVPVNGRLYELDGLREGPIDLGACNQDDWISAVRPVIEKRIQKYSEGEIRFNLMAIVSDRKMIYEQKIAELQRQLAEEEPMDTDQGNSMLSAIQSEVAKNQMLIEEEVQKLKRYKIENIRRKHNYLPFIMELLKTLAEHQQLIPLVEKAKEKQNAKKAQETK
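Material: human UCH37 enzyme supplied as purified proteasome complex. Measure: % inhibition of Ub-AMC cleavage fluorescence. Medium: pH 7.4 Tris-HCl (50 mM) with ovalbumin, ATP-MgCl2, DTT. Times: 30 min preincubation with enzyme, 25 min cleavage at room temperature. Detection: AMC fluorescence intensity at 355/460 nm.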
AF4-AF9 inh – inhibitors of AF4 peptide binding to AF9, primary screen, biochemical, AlphaScreen, biotin-AF4 peptide, FLAG-AF9, single point; Protein AF-9 (Homo sapiens), P42568; inhibition, % at 10 µM; actives 0.47% (n = 350,000);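 active = every replicate reaching a set inhibition limit, whatever the replicate mean, cut at about 25% in these data; inconclusive = mean inhibition reaches that limit but some replicates miss it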;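 also: 0% = plate neutral control median and 100% = total signal loss; the record names both 10 and 1 µM as test concentration; the first replicate is given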
Target sequence (P42568 whole entry, looked up): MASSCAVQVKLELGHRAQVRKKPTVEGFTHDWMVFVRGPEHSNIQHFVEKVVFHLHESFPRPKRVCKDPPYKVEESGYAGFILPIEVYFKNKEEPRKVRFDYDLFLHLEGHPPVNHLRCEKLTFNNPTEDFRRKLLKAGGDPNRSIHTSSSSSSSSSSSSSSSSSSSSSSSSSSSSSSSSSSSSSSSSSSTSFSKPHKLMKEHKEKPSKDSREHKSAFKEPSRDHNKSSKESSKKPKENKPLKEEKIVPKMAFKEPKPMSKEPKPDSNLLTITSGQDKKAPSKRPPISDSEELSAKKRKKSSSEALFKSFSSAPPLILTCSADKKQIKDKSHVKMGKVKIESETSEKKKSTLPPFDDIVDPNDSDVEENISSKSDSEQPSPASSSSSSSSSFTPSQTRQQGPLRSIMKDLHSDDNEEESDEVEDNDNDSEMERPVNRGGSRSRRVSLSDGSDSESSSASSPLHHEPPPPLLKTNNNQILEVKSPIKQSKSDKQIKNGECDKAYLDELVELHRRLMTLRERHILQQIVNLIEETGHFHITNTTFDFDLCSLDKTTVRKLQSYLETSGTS
Vif A3G – inhibitors of Vif binding to APOBEC3G peptide, primary screen, biochemical, TR-FRET, GST-Vif 1-94, biotin-A3G peptide, dose response retest (AID 1117319); Virion infectivity factor (Human immunodeficiency virus type 1 group M subtype B (isolate …; TR-FRET GST-Vif / biotin-A3G peptide binding; higher % means a stronger effect; test concentration not given here; strong numbers were not always called active; one-dose inhibition, %; IC50 in µM for titrated hits; actives 0.57% (n = 260,000);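 active = above the screen mean plus three standard deviations and confirmed in dose response; inconclusive = results disagree or hit not tested in dose response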;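 also: Vif residues 1-94 fused to GST binding biotinylated APOBEC3G peptide 110-148; 0% = full assay without inhibitor and 100% = GST in place of GST-Vif; retest series ran down from 100 µM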
HNF4A DNA FP – change in binding of human HNF4A to DNA, primary screen, biochemical, fluorescence polarization, FITC-DNA; Hepatocyte nuclear factor 4-alpha (Homo sapiens), P41235; 1 h; activity change, % at 10 µM; actives 0.3% (n = 360,000); in the data active = activity change above about 30%, passing the limit was not always enough;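 also: controls were the assay level and a saturating level of protein; the project sought stronger binding though the title names inhibitors; some compounds called inactive have numbers as strong as hits; positive values seem to mean higher polarization but the record does not say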
FGF22 binding – binders of human FGF22 protein, primary screen, FGF22 synaptogenesis inhibitor project, biophysical, thermal shift, single point; recombinant FGF22 thermal shift, SYPRO orange fluorescence; percent of sucrose octasulfate shift, DMSO zero; Fibroblast growth factor 22 (Homo sapiens), Q9HCT0; calls only at 9.99 µM; actives 1.5% (n = 340,000);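 active = melting point raised past a set limit in the mean and every replicate; inconclusive = no clear call; three in four hits are not shown here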
Target sequence (Q9HCT0 whole entry, looked up): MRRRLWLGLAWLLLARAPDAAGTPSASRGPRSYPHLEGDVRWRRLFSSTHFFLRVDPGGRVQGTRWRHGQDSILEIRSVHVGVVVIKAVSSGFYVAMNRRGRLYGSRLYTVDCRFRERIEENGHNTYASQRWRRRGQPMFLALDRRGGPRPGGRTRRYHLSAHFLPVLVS
Ecoli growth – E. coli growth inhibition, primary screen, OD600; Escherichia coli growth, 23 h; active compounds read low; OD600 absorbance (concentration not given with the values); actives 0.21% (n = 330,000);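 active = OD600 absorbance below the run mean of sample wells minus 3.6 SD, in any replicate, cut at about 0.56 in these data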;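 also: stock transfer was 300 nL into about 60 µL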
Active calls of the source: *; i = inactive; ? = inconclusive; nt = not tested or not shown.

no.	mol	RanGTP-Impb inh	UCH37 inh	AF4-AF9 inh	Vif A3G	HNF4A DNA FP	FGF22 binding	Ecoli growth
1	CNc1ccc(Br)cc(C(=O)/C=C/c2cccc(OC)c2)c1=O	-16	9.3	nt	?	-3.6	nt	0.65
2	O=C1COc2ccc(S(=O)(=O)CCC(=O)N3CCN(c4cccc(C(F)(F)F)c4)CC3)cc2N1	5.5	3.2	1.3	nt	1.1	i	0.7
3	Cc1ccc(Cl)c(OCC(O)CN(CCO)CCO)c1 (stereo unspecified)	-2.9	-0.6	nt	-6%	0.9	nt	0.65
4	Cc1ccc(CC(=O)O/N=C(\N)c2ccccn2)cc1	-3.9	-0.3	-1.3	2%	3.1	i	0.73
5	COC(=O)Nc1nc(-c2ccc(F)cc2)c(C)s1	-1.4	0.2	2.0	6%	-2.8	nt	0.68
6	C(=N\Nc1nc2ccccc2[nH]1)/c1c[nH]c2ccccc12	3.3	nt	nt	-14%	-2.0	nt	nt
7	O=C(Cc1ccc(Cl)cc1)Nc1ccc2oc(-c3ccncc3)nc2c1	0.7	-70	nt	-9%	-1.1	nt	0.77
8	COc1ccc2c(c1)OC1=C(C(=O)CCC1)C2C1=C(O)CCCC1=O (stereo unspecified)	-8.8	15	nt	?	2.9	nt	0.7
9	NC(=O)COC(=O)c1cc(S(=O)(=O)N2CCN(c3ccccc3)CC2)ccc1Cl	3.6	1.3	2.2	-5%	0.5	i	0.67
10	CCOc1ccc(C(=O)NCC(=O)NNC(=O)CN(C)S(=O)(=O)c2ccc(Cl)cc2)cc1	2.9	2.9	-1.7	3%	0.8	i	0.71
11	CN1C(=O)C(CC(=O)Nc2ccc(F)cc2)N(Cc2cccs2)C1=S (stereo unspecified)	-2.4	8.2	-3.7	nt	6.5	i	0.66
12	COc1cc2c(cc1OC)C(c1ccc(Cl)cc1)=NCC2	0.7	6.7	2.9	nt	-2.7	i	0.66
13	NC(=O)C1CCCN(C(=O)c2[nH]c(C(F)(F)F)nc2-c2ccccc2)C1 (stereo unspecified)	nt	nt	-1.3	nt	4.6	i	nt
14	CC1=C(C(=O)Nc2ccccc2)C(c2ccc(C)o2)N2C(=O)CSC2=N1 (stereo unspecified)	1.3	2.1	nt	16%	nt	nt	0.73
15	CN(C)S(=O)(=O)c1ccc(Cl)c(C(=O)NNC(=O)c2ccc3c(c2)OCO3)c1	nt	1.6	3.0	-8%	0.8	i	0.68
16	NCCNC(=O)c1ncsc1-c1cccc(F)c1	-3.0	-0.6	0.7	nt	-4.0	i	0.7
17	O=C(CCOc1ccccc1)Nc1cccc(S(=O)(=O)Nc2ccccc2Cl)c1	-1.0	1.2	-3.0	15%	0.5	i	0.63
18	CC(N=c1ccccn1C(=O)Nc1ccc(F)cc1)c1ccco1 (stereo unspecified)	-0.7	0.1	-2.3	-6%	1.1	i	0.67
19	O=C(NC1CCCC1)C(c1cccs1)N(Cc1ccco1)C(=O)Cn1nnc(-c2cccs2)n1 (stereo unspecified)	7.3	2.7	2.8	-4%	-5.3	i	0.68
20	CCOc1ccc(C2C(C(=O)c3ccc(C)o3)=C(O)C(=O)N2CCCN(CC)CC)cc1 (stereo unspecified)	1.9	7.4	1.3	3%	3.8	i	0.72
21	Cc1ccc(C)c(N(CC(=O)N2CCc3ccccc3C2)S(C)(=O)=O)c1	-0.3	2.7	0.7	nt	0.3	i	0.67
22	Cc1ccc(NC(=O)c2cc(NC(=O)c3ccco3)ccc2N2CCOCC2)cc1Cl	-5.2	-13	nt	0%	4.8	nt	0.76
23	O=C1CC(c2ccc(S(=O)(=O)N3CCCCC3)cc2)CN1 (stereo unspecified)	-0.1	2.5	nt	6%	3.5	nt	0.66
24	CCCCN(C)C(=O)C1CCN(C/C(C)=C/c2ccccc2)CC1	nt	-0.7	nt	-5%	0.7	nt	0.76
25	NS(=O)(=O)c1ccc(NC(=S)N2CCN(Cc3ccc(Cl)c(Cl)c3)CC2)cc1	-1.9	0.8	4.2	-5%	4.0	i	0.67

no.	mol	RanGTP-Impb inh	UCH37 inh	AF4-AF9 inh	Vif A3G	HNF4A DNA FP	FGF22 binding	Ecoli growth
26	CC(=O)Nc1ccc(S(=O)(=O)Nc2ccc(Cl)cn2)cc1	2.4	-1.9	-2.8	0%	-1.6	i	0.66
27	CCOC(=O)C1CC2=C(CC(C)(C)CC2=O)N(CCOC)C1=O (stereo unspecified)	nt	nt	-2.5	0%	-1.8	i	nt
28	CN(C)C(=O)N1CCCC(C(=O)NCc2ccccc2Cl)C1 (stereo unspecified)	-4.2	-0.1	nt	-1%	0.5	nt	0.69
29	CCOc1ccc(S(=O)(=O)NCc2cccnc2)cc1NC(=O)c1ccccc1F	0.0	-36	2.1	nt	-1.1	i	0.64
30	COc1ccc(C2C(C(=O)c3ccc(C)o3)=C(O)C(=O)N2c2cc(C)on2)cc1OC (stereo unspecified)	-2.3	1.0	nt	14%	-2.1	nt	0.71
31	CCOC(=O)C1CCCN(C(=O)c2sc(-c3ccccc3)nc2C)CC1 (stereo unspecified)	nt	nt	-1.5	nt	2.2	i	nt
32	CN(C1CCS(=O)(=O)C1)S(=O)(=O)c1ccccc1[N+](=O)[O-] (stereo unspecified)	-6.1	1.5	0.6	-5%	2.1	i	0.69
33	CCNc1nc(NCc2ccccc2)nc(SCC(=O)Nc2ccccc2)n1	1.1	1.9	nt	5%	2.2	nt	0.69
34	Cc1c(NCc2ccncc2)cccc1C(=O)O	-2.8	1.7	1.1	nt	-2.6	i	0.63
35	COc1ccc(OCC(O)CNC2CCCC2)cc1 (stereo unspecified)	-7.8	1.7	4.4	1%	-0.2	i	0.7
36	Oc1ccccc1N1CCN(c2nc(-c3cccs3)nc3ccccc23)CC1	-0.5	2.1	-8.4	nt	-4.3	i	0.69
37	COc1ccc(N2CCN(c3nc(Cl)nc(Nc4ccc(F)cc4)n3)CC2)cc1	?	0.1	nt	12%	3.3	nt	0.67
38	C=CCc1cccc2cc(C(=O)N(C)C)c(=O)oc12	0.6	-8.8	-2.9	-1%	1.1	nt	0.71
39	COc1ccc(NC(=O)CN(C)CC(=O)NC2CCCCC2C)cc1 (stereo unspecified)	nt	0.0	-5.0	nt	0.2	i	0.71
40	COc1ccc(NC(=O)COC(=O)C23CC4CC(CC(Cl)(C4)C2)C3)c(OC)c1	4.2	0.5	3.5	4%	1.5	i	0.67
41	CCCN(CCC)S(=O)(=O)c1cccc(C(=O)Nc2ccc3c(c2)OCO3)c1	-3.0	-0.9	nt	2%	-2.6	nt	0.65
42	CC(C)N(C)c1ncnc2c1ncn2[C@H]1CN(Cc2ccco2)C[C@@H](CO)O1	nt	nt	-2.5	nt	-1.6	i	nt
43	COC(=O)c1sc2nc(SCc3ccccc3C#N)n(N)c(=O)c2c1C	0.8	-56	-2.9	?	2.5	i	0.68
44	CC(C)(C)C(=O)COC(=O)c1cc(-c2ccncc2)nc2ccccc12	5.5	-5.3	6.3	-6%	-5.1	i	0.7
45	COc1cc(C(C)=O)ccc1Oc1ncnc2c1cnn2-c1ccc(C)c(C)c1	4.1	-5.5	nt	nt	-4.8	nt	0.69
46	Cc1ccc(NS(=O)(=O)c2ccc(NC(=O)c3ccc(-c4ccccc4)cc3)cc2)c(C)c1	2.3	1.8	nt	nt	0.0	nt	0.71
47	CCOc1ccc(C(C)=O)cc1CN1C(=O)c2ccccc2S1(=O)=O	0.3	6.1	0.5	nt	0.5	i	0.65
48	COc1ccc(NCc2nnc(SCC(=O)c3ccc(OC)cc3)n2C)cc1	-2.4	3.5	nt	1%	0.8	nt	0.71
49	CNc1cc([N+](=O)[O-])ccc1N/C=C/C(=O)c1cccs1	-3.2	6.2	nt	17%	0.9	nt	0.7
50	O=C(c1ccc(Br)o1)N(c1ccccn1)C1CCCCC1	-2.2	-2.8	nt	10%	-1.2	nt	0.64

Excerpt, compounds 47 to 50
no.	mol	RanGTP-Impb inh	UCH37 inh	AF4-AF9 inh	Vif A3G	HNF4A DNA FP	FGF22 binding	Ecoli growth
47	CCOc1ccc(C(C)=O)cc1CN1C(=O)c2ccccc2S1(=O)=O	0.3	6.1	0.5	nt	0.5	i	0.65
48	COc1ccc(NCc2nnc(SCC(=O)c3ccc(OC)cc3)n2C)cc1	-2.4	3.5	nt	1%	0.8	nt	0.71
49	CNc1cc([N+](=O)[O-])ccc1N/C=C/C(=O)c1cccs1	-3.2	6.2	nt	17%	0.9	nt	0.7
50	O=C(c1ccc(Br)o1)N(c1ccccn1)C1CCCCC1	-2.2	-2.8	nt	10%	-1.2	nt	0.64

The listing continues.
no.	mol	RanGTP-Impb inh	UCH37 inh	AF4-AF9 inh	Vif A3G	HNF4A DNA FP	FGF22 binding	Ecoli growth
51	Cc1ccc2nc(SCc3ccccc3)c(C=O)c(=O)n2c1	4.4	5.4	-15	-1%	-2.7	i	0.73
52	COc1ccc(-c2nn(-c3ccccc3)cc2CNC[C@H]2O[C@@H](n3cnc(C(N)=O)n3)[C@H](O)[C@@H]2O)cc1	nt	nt	0.9	13%	-3.8	i	nt
53	Cc1ccc(S(=O)(=O)N2[C@@H](c3cccc(Cl)c3)C(C(=O)O)=CC[C@H]2c2cccc(Cl)c2)cc1	nt	2.5	-73	nt	-9.2	i	nt
54	O=S1(=O)C=C(Oc2ccc(F)cc2)c2ccccc21	6.8	-0.2	nt	?	0.3	nt	0.63
55	COc1cc(NS(=O)(=O)c2ccc(N/C=C\C(=O)c3ccc(C)cc3)cc2)nc(OC)n1	?	-163	nt	0%	-0.2	nt	0.82
56	Cc1nnc(SCC(=O)N2CC(=O)Nc3ccccc32)n1Cc1ccccc1	-1.1	-0.5	nt	-3%	-0.2	nt	0.72
57	CCOC(=O)c1sc2nc3c(cc2c1N)C(=O)CC(C)(C)C3	?	0.1	-1.2	-13%	3.9	i	0.68
58	COc1cc(CCc2ccccc2)c(C(=O)O)c(O)c1C/C=C(/C)CCC=C(C)C	nt	15	4.8	3%	-40	i	0.68
59	O=C(CC1(O)C(=O)N(C/C=C/c2ccccc2)c2ccccc21)c1ccccn1 (stereo unspecified)	-1.2	2.7	nt	2%	5.3	nt	0.72
60	Cc1ccccc1C([O-])=Nc1ccc[n+](-c2nc3ccccc3nc2NS(=O)(=O)c2ccccc2)c1	?	3.8	nt	11%	nt	nt	0.68
61	COc1ccc(S(=O)(=O)N2CCCCC2c2cc(C(=O)NCc3cccnc3)no2)cc1 (stereo unspecified)	nt	nt	-12	nt	-0.7	i	nt
62	CN(C)c1ccc(C(=O)/C=C/c2ccc(Br)cc2)cc1	-4.7	-0.5	-0.4	2%	15	i	0.74
63	O=C(COC(=O)c1ccccc1Br)NCc1cccs1	nt	3.4	2.3	nt	3.2	i	0.68
64	NC(=O)c1ccsc1NC(=O)COC(=O)CCc1ccccc1	nt	nt	0.3	7%	1.3	i	nt
65	CCCCn1nc(C(=O)NCC(c2cccs2)N2CCOCC2)c2ccccc2c1=O (stereo unspecified)	nt	2.2	1.5	-1%	0.9	i	0.66
66	CCc1ccc(C2NC(c3ccc(CC)cc3)C([N+](=O)[O-])C(C)(C)C2[N+](=O)[O-])cc1 (stereo unspecified)	0.4	5.8	3.4	10%	1.2	i	0.65
67	CC(C)CN1C(=O)c2ccc(C(=O)Nc3ccc(O)cc3C(=O)O)cc2C1=O	-1.3	8.3	14	36%	-4.0	nt	0.63

Screening results (PubChem)

An excerpt. The share of hits here may be higher or lower than overall.
